High-throughput results from PubChem BioAssay.
HNF4A DNA FP: change in binding of human HNF4 alpha to DNA | HNF4a-FITC DNA binding, fluorescence polarization, 1 h | hit rate 0.3% among 360,000 | AID 1224865 | activity change, % at 10 µM; in the data active = activity change above about 30%, passing the limit was not always enough;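 also: controls were the assay level and a saturating level of protein; the project sought stronger binding though the title names inhibitors; some compounds called inactive have numbers as strong as hits; positive values seem to mean higher polarization but the record does not say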
ALR inh: human ALR oxidase inhibition via reduced H2O2 | P55789 | purified ALR, DTT oxidation, H2O2 HRP-luminol luminescence | inhibition, % (concentration not given with the values) | hit rate 3.8% among 290,000;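 active = mean and each replicate at 75% or more; inconclusive = only one of the two met; inactive = neither met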;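 also: stock transfer was 7.5 nL into about 7.5 µL; 0% = neutral wells and 100% = wells with inactivated enzyme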
Target sequence (P55789 whole entry, looked up): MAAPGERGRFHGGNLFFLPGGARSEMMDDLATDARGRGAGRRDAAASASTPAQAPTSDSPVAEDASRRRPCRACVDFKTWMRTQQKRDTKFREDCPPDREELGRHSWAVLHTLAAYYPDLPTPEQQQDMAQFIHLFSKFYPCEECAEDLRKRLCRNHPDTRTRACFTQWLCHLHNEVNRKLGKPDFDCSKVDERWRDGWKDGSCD
Vif TR-FRET: HIV-1 Vif–A3G interaction blockers – biochemical, TR-FRET, GST-Vif 1-94, biotin-A3G peptide, dose response retest, primary screen (AID 1117319); TR-FRET GST-Vif / biotin-A3G peptide binding; higher % means a stronger effect; test concentration not given here; strong numbers were not always called active; inhibition, %; hits with a dose series show IC50 in µM; hit rate 0.57% among 260,000;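 active = above the screen mean plus three standard deviations and confirmed in dose response; inconclusive = results disagree or hit not tested in dose response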;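 also: Vif residues 1-94 fused to GST binding biotinylated APOBEC3G peptide 110-148; 0% = full assay without inhibitor and 100% = GST in place of GST-Vif; retest series ran down from 100 µM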
LANA-H2B inh: blocks KSHV LANA binding to histone H2A/H2B; Q9QR71; cell-free LANA-H2A/H2B peptide, fluorescence polarization; inhibition, % (test concentration not listed); hit rate 0.6% among 320,000; in the data active = inhibition mostly above about 10%, no sharp cut-off; inactive = mostly below about 6.7%;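 also: stock transfer was 7.5 nL into about 10 µL; 0% = median of vehicle wells and 100% = median of positive control wells; one replicate is shown; the record names a cut of 25% in any replicate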
RanGTP-Imp inh: inhibitors of RanGTP-importin-beta interaction, primary screen, biochemical, FRET, CFP-Ran, YFP-importin-beta, homogeneous; AID 2216; cell-free CFP-Ran/YFP-importin-beta FRET ratio; hit rate 1.1% among 300,000; inhibition, % (test concentration not listed);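 active = most replicates above 15%; inconclusive = exactly half above 15%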;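 also: 0% = DMSO wells and 100% = Ran loaded with GDP instead of GTP; wells of about 40 µL received 100 nL stock; the first replicate is given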
B2AR ag: activates human beta-2 adrenergic receptor causing internalization; P07550; Am2.2-beta2AR cells, FAP receptor internalization, flow cytometry; reference of the scale not given here; response, % (no concentration beside the values); hit rate 0.43% among 340,000; AID 504454;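 active = response above a set limit, near 3 SD of response in nonfluorescent compounds, cut at about 42% in these data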;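 also: stock transfer was 100 nL into about 11 µL; a reference agonist was the positive control; negative values mostly stem from fluorescent compounds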
Target sequence (P07550 whole entry, looked up): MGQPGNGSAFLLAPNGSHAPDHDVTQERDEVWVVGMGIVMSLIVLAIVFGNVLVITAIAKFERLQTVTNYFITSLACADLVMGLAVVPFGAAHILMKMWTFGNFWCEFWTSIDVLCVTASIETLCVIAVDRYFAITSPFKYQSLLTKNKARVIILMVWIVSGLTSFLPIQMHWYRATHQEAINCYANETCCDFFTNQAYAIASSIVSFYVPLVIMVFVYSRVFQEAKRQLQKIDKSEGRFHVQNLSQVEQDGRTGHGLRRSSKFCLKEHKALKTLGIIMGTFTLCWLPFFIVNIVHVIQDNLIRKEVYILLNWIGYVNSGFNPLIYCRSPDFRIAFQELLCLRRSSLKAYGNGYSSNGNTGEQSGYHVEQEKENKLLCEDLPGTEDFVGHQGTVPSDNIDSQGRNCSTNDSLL
Calb FLC: affects C. albicans growth with fluconazole. hit rate 0.57% among 300,000. growth inhibition, % (concentration not given with the values). C. albicans CaCi-2 (fluconazole-resistant clinical isolate) + fluconazole, Alamar Blue growth, 48 h;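 active = most replicates above 75%; inconclusive = exactly half above 75%; inactive = most below 75%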;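 also: all wells also contain fluconazole at 8 µg/ml as a sub-toxic cotreatment; 0% = median of DMSO wells and 100% = median of geldanamycin control wells; wells of about 8 µL received 7.5 nL stock; the first replicate is given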
The depositor's hits bear a star; ? = inconclusive; nt = no result given.

SMILES	HNF4A DNA FP	ALR inh	Vif TR-FRET	LANA-H2B inh	RanGTP-Imp inh	B2AR ag	Calb FLC
O=C(CN1CC(c2ccccc2)CC1=O)Nc1ccccc1 (configuration not stated)	6.8	nt	?	-1.2	0.7	-9	3
CC(C(=O)c1c[nH]c2ccccc12)N1CCSCC1 (configuration not stated)	-0.8	-12	-5%	23*	1.1	1	13
C[C@]12CCC3C(CC[C@H]4[C@H](O)[C@H](O)CC[C@]34C)C1CC[C@@H]2O (some centres not stated)	5.5	nt	-5%	nt	nt	-4	nt
COCCOC(=O)c1c(N)n(Cc2ccco2)c2nc3ccccc3nc12	-4.2	-16	nt	4.4	19*	-17	-1
Cc1ccc(CNCCc2ccc(F)cc2)s1	-1.2	6	-1%	-4.1	1.9	-1	-21
O=C(Cn1cnc2ccccc2c1=O)NCCC(=O)N1CCC2(CC1)OCCO2	3.3	-1	-7%	5.6	0.8	2	-11
COc1cc(OC)c(OC)cc1/C=C1\C(=O)NC(=O)N(Cc2ccccc2)C1=O	6.1	44	15%	-1.2	-0.1	4	-16
COC(=O)C1=C(c2cccc(C#N)c2)C[C@@H]2CC[C@H]1N2C(=O)N1CCOCC1	-1.9	2	nt	-2.6	nt	-1	nt
Cc1ccc(-n2c(C)cc(/C=C3/C(=O)NC(=O)N(C)C3=O)c2C)cc1	1.7	1	4%	3.1	-1.2	-11	12
Cc1ccc2c(C)c3ccc4ccccc4c3c[n+]2c1	-33	nt	-8%	nt	nt	-22	nt
COc1cc(C)c(CN2CCN(c3ccccc3)CC2)cc1C	-0.8	nt	5%	-1.6	3.9	7	-6
Cn1c(O)c(C(=N)COc2cccc(Cl)c2)c(=O)n(C)c1=O	5.4	-12	0%	-0.8	-1.1	-13	-7
O=C(NCc1ccccn1)c1ccccc1Cl	4.1	2	-3%	9.6	0.8	-3	-4
CCC(CC)NC1CCCCC1OC (configuration not stated)	-0.5	4	-1%	0.3	0.8	-6	-3
CCCCC(=O)N/N=C/c1c(O)n(-c2cccc3ccccc23)c(=O)[nH]c1=O	-1.0	2	-1%	5.4	-1.8	-7	-4
C=CCN1C(=O)NC(=O)C(CCc2ccncc2)(CCc2ccncc2)C1=O	-1.6	16	2%	5.1	0.2	6	-9
Nc1ccncc1Cl	-0.6	-2	nt	2.5	-3.1	10	-13
Cc1ccc[n+](CC(O)Cn2c3ccccc3c3ccccc32)c1 (configuration not stated)	0.0	nt	nt	0.8	3.5	-3	16
Cc1cc(C=C2C(=O)N(C)C(=S)N(C)C2=O)c(C)n1C1CCCCC1	20	1	?	-5.9	-1.9	13	34
Cn1c(NN=O)nc2ccccc21	7.4	-10	-5%	1.0	3.4	8	82
COc1ccc(OC)c(-n2c(O)c(/C=C3\C=Nc4ccccc43)c(=O)[nH]c2=O)c1	1.4	60	-5%	9.2	-0.3	12	-3
O=C1C(O)CC2c3ccccc3CC3(CCCC3)N12 (configuration not stated)	-0.5	nt	51µM*	7.0	-2.4	7	-4
CN(C)CCN(CC1CCCN(Cc2ccccc2F)C1)C(=O)Cc1ccc(F)c(F)c1 (configuration not stated)	-0.7	nt	nt	-9.9	-3.1	6	1
BrCC(Br)C1CCC(Br)C(Br)C1 (configuration not stated)	4.9	-9	nt	0.7	nt	-4	nt
COC(=O)C1=C(c2cccc(OCc3ccccc3)c2)C[C@@H]2CC[C@H]1N2C(=O)NCCOc1ccccc1Cl	0.1	3	nt	-1.5	nt	-9	nt
(list continues)
SMILES	HNF4A DNA FP	ALR inh	Vif TR-FRET	LANA-H2B inh	RanGTP-Imp inh	B2AR ag	Calb FLC
c1ccc(CN2CCN(Cc3ccc4c(c3)OCCO4)CC2)cc1	1.9	-18	?	-4.1	-5.0	2	-20
Nc1c(C(=O)NCC2CCCO2)c2nc3ccccc3nc2n1Cc1ccco1 (configuration not stated)	2.6	4	?	4.8	64*	5	8
c1ccc(-c2[nH]c[n+](CC3CO3)c2-c2ccccc2)cc1 (configuration not stated)	nt	0	-32%	0.6	nt	nt	nt
Cc1ccccc1NC(=S)NC(NC(=O)CF)C(Cl)(Cl)Cl (configuration not stated)	-1.0	-5	13%	1.0	8.7	-2	-5
CC(C)(C)C(=O)NC1CCSC1=O (configuration not stated)	nt	-3	-7%	-5.3	0.8	nt	-3
COc1ccccc1CC(=O)N1CCN(CCc2ccccc2)CC1	3.2	-10	nt	-0.6	1.3	5	2
Cc1ccc(S(=O)(=O)N2CC3CC(C2)c2cccc(=O)n2C3)cc1 (configuration not stated)	1.5	-11	8%	-23	-3.9	-1	7
CC(=O)C1=C(C)OC(N)=C(C(=O)OC(C)C)C12C(=O)Nc1ccccc12 (configuration not stated)	0.3	nt	15%	6.6	1.0	-4	-29
CC(C)CN1CCN(Cc2cccc3c2OCO3)CC1CCO (configuration not stated)	3.2	-2	-6%	-111	?	0	-10
C[C@]12CCC3C(CC[C@H]4C[C@H](O)[C@H](O)C[C@]34C)C1CC[C@@H]2O (some centres not stated)	2.7	nt	-14%	nt	nt	-1	nt
Cn1cc(C(=O)OCC(=O)NC2(C#N)CCCCC2)c2ccccc21	-0.8	nt	-1%	nt	nt	-7	nt
C#CCN(C)C(C)Cc1ccccc1 (configuration not stated)	1.1	-2	nt	-19	0.1	-13	3
CC1=C(C)CC2(CC1)C(=O)NC(=O)NC2=O	1.7	nt	-13%	nt	nt	-8	nt
COC(=O)C1=C(c2ccc(F)cc2F)C[C@@H]2CC[C@H]1N2C(=O)NCCO	-1.1	4	nt	-3.8	nt	6	nt
CC[C@H](C)/C=C(C)/C=C/C1=CC2=C(Cl)C(=O)[C@@](C)(OC(C)=O)C(=O)C2=CO1	-2.3	0	nt	1.5	1.0	0	1
CC(=NC1CCN(Cc2ccccc2)CC1)c1c(O)n(C)c(=O)n(C)c1=O	0.8	-1	-4%	1.5	-1.7	-13	6
CCOC(=O)CSc1ccc(C(=O)N2CCC3(CC2)OCCO3)cc1[N+](=O)[O-]	1.9	-5	-11%	5.2	2.1	3	3
COc1ccc(-c2nc3ccccc3c(=O)n2-c2nccs2)cc1	-0.7	-5	7%	-4.0	5.8	-7	-13
C=C(C)C1(CCCC)C(=O)NC(=S)NC1=O	1.9	nt	-11%	nt	nt	-9	nt
O=[N+]([O-])c1cc(O)c(O)c([N+](=O)[O-])c1	-3.2	92*	nt	7.3	nt	-7	nt
O=c1c2ccccc2nc(CSc2ncnc3nc[nH]c23)n1-c1ccc(Cl)c(Cl)c1	2.7	-4	-2%	-1.4	?	5	-2
COc1ccccc1-n1c(O)c(C=Nc2c(C)n(C)n(-c3ccccc3)c2=O)c(=O)[nH]c1=O	-0.3	2	4%	2.3	5.4	5	-7
Cc1ccccc1CN1CCN(Cc2ccccc2)CC1	3.3	-8	0%	1.1	-1.6	13	-20
COC(=O)C1=C(c2cccc(C#N)c2)C[C@@H]2CC[C@H]1N2C(=O)NC1CC1	0.3	-3	nt	5.6	nt	1	nt
COC(=O)C1=C(c2ccccc2)C[C@@H]2CC[C@H]1N2C(=O)NCCS(C)=O (some centres not stated)	2.5	14	nt	-7.3	-2.6	1	-15

Grouped by structure, the compounds so far containing an aryl methoxy group
SMILES	HNF4A DNA FP	ALR inh	Vif TR-FRET	LANA-H2B inh	RanGTP-Imp inh	B2AR ag	Calb FLC
COc1cc(OC)c(OC)cc1/C=C1\C(=O)NC(=O)N(Cc2ccccc2)C1=O	6.1	44	15%	-1.2	-0.1	4	-16
COc1cc(C)c(CN2CCN(c3ccccc3)CC2)cc1C	-0.8	nt	5%	-1.6	3.9	7	-6
COc1ccc(OC)c(-n2c(O)c(/C=C3\C=Nc4ccccc43)c(=O)[nH]c2=O)c1	1.4	60	-5%	9.2	-0.3	12	-3
COc1ccccc1CC(=O)N1CCN(CCc2ccccc2)CC1	3.2	-10	nt	-0.6	1.3	5	2
COc1ccc(-c2nc3ccccc3c(=O)n2-c2nccs2)cc1	-0.7	-5	7%	-4.0	5.8	-7	-13
COc1ccccc1-n1c(O)c(C=Nc2c(C)n(C)n(-c3ccccc3)c2=O)c(=O)[nH]c1=O	-0.3	2	4%	2.3	5.4	5	-7

Later entries
SMILES	HNF4A DNA FP	ALR inh	Vif TR-FRET	LANA-H2B inh	RanGTP-Imp inh	B2AR ag	Calb FLC
CCOC(=O)c1c(NS(=O)(=O)c2ccccc2)n(CCCOC)c2nc3ccccc3nc12	0.8	23	-6%	0.9	106*	-12	39
O=C1CN=C(c2ccccc2)c2cc(Br)ccc2N1Cc1cc(=O)n2ccccc2n1	3.1	nt	nt	-4.1	0.1	-12	-7
CN1C(=O)C(=Cc2ccc(Sc3ccccc3)o2)C(=O)N(C)C1=O	-4.5	7	14%	-5.1	nt	14	27
COc1ccc(OC)c2c1CCC1NCCOC21 (configuration not stated)	-1.9	-31	5%	0.9	-0.5	1	-6
O=C1NC(=O)N(c2ccc3c(c2)OCO3)C(=O)/C1=C\c1ccc(-c2ccccc2C(=O)O)o1	-16	nt	?	0.7	-2.0	3	4
CN1CCN(c2cc(N3CCCCCC3)c(F)cc2[N+](=O)[O-])CC1	0.5	1	-14%	4.8	?	3	52
C[C@H](NC(=O)CCC(=O)N1C[C@H]2C[C@H](C1)c1cccc(=O)n1C2)c1ccccc1	-1.6	-21	nt	2.2	3.6	0	-3
CCC(C(=O)N1CCC2(CC1)OCCO2)c1ccccc1 (configuration not stated)	0.3	-6	24%	-0.5	-1.2	2	-6
CC(=O)N1CN2CN(C(C)=O)CC(C(=O)c3ccc(Br)cc3)(C2)C1	1.3	-7	28%	3.1	-2.2	-2	-1
CCCc1nc2ccccc2c(=O)n1-c1cccc(OC)c1	3.8	-17	0%	-2.5	4.2	-1	-2
Cc1ccc(N2Cc3ccccc3C2=N)cc1[N+](=O)[O-]	1.1	-7	?	5.9	2.4	-2	1
CN1C(=O)C(=Cc2ccccc2OCc2ccc(Cl)cc2)C(=O)N(C)C1=O	1.5	49	4%	1.9	?	6	-7
CCN(C(=O)COC(=O)Cc1ccccc1)c1c(N)n(Cc2ccccc2)c(=O)[nH]c1=O	3.4	nt	5%	-0.6	nt	5	nt
CCOP(=O)(Cc1cc(C(=O)CC)c(C)o1)OCC	-2.9	3	-2%	-0.7	-4.6	0	4
CCCCNC(=O)c1c(N)n(Cc2ccc3c(c2)OCO3)c2nc3ccccc3nc12	8.6	-10	-7%	-5.3	32*	2	-4
Cc1cc(OCC(=O)N2CCN(CC(=O)N3CCOCC3)CC2)c(C(C)C)cc1Cl	-0.1	33	nt	-3.4	nt	3	nt
COc1ccc(S(=O)(=O)NCc2ccc(C(=O)N3CCC4(CC3)OCCO4)cc2)cc1	-1.7	nt	0%	-0.6	-1.9	5	-9
O=C(Cc1ccccc1)Oc1ccc(N2C(=O)CCC2=O)cc1	0.3	2	16%	1.5	3.2	1	2
c1ccc(C(OCCN2CCN(c3ncccn3)CC2)c2ccccc2)cc1	-0.8	-1	nt	3.2	0.9	-1	-15
COc1ccc(C(=O)N2Cc3cnnn3-c3ccccc3C2C#N)cc1 (configuration not stated)	3.6	nt	2%	nt	nt	-1	nt
CC/C=C/CC(=O)N[C@@H](c1ccccc1)[C@@H](O)C(=O)O[C@H]1C[C@@]2(O)[C@@H](OC(=O)c3ccccc3)C3[C@](C)(C(=O)[C@H](OC(C)=O)C(=C1C)C2(C)C)[C@@H](O)C[C@H]1OC[C@@]31OC(C)=O (some centres not stated)	3.3	-26	nt	5.2	-1.4	-3	3
CN1CC=C(c2c[nH]c3ccccc23)CC1	6.7	18	0%	0.1	2.3	15	0

Not all compounds are listed; the hit share may differ from the screen's.
